Screens from PubChem.
YjeE inh: inhibitors of E. coli YjeE (TsaE); hit rate 0.05% among 71,000; Potency, µM; purified YjeE, fluorescence polarisation of a bound ADP probe; P0AF67; active = well fitted falling curve; inconclusive = weaker or top-dose-only fall, or a rising curve; inactive = flat or poorly fitted curve;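 note: top concentration of the series not given in the record; excess ADP was the control for the full effect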
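Purified YjeE (10 uM) with BODIPY Texas Red-labeled ADP probe (2 uM); compounds pin-transferred, 15 min at room temperature. Binding inhibition read as decreased fluorescence polarization; ADP titration as control.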
Bst PK mod: modulators of Bacillus stearothermophilus pyruvate kinase. partly purified Bacillus stearothermophilus pyruvate kinase, luminescence ATP production; ribose 5-phosphate activator present at AC10. Potency, µM. hit rate 1.2% among 51,000. AID 361; in the data active means potency below about 11 µM; inconclusive means mostly about 12 µM to 25 µM; inactive means weaker than that;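 the screen sought inhibitors and activators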;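 note: potency is the fitted concentration of half-maximal effect; scaled between full activation by ribose 5 phosphate and full inhibition by luteolin; about four in five hits inhibit and the cells do not say which; series up to 57 µM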
* hit, by the source's call; i = inactive; u = inconclusive; x = no result given. Not all compounds are listed; count on the stated rates, not on these rows.

YjeE inh | Bst PK mod | mol
i | >57 | O=S(=O)(NCc1ccccc1)c1ccc(S(=O)(=O)N(Cc2ccccn2)Cc2ccco2)cc1
i | x | COc1cccc(-c2nccc(NCc3cnc(C)cn3)n2)c1
i | >57 | CCS(=O)(=O)N1CCCC(C(=O)NC2CCCCC2)C1 (configuration not stated)
i | >26 | CCCN(CCC)S(=O)(=O)c1ccc(C(=O)O)cc1
i | x | COc1ccc(N2C(=O)CC(NCc3cccc(F)c3)C2=O)cc1 (configuration not stated)
i | >57 | O=C(CN1C(=O)C2CC=CCC2C1=O)Nc1nc2ccccc2[nH]1 (configuration not stated)
i | >57 | Cc1nc(SCC(=O)Nc2ccnc3ccccc23)n[nH]1
i | >57 | Clc1ccc(C2=Nn3c(nnc3-c3cccnc3)SC2)s1
i | >57 | COc1cc(C2N(c3cc(C)on3)C(=O)C3CCCN32)cc(OC)c1OC (configuration not stated)
i | >57 | Cc1ccccc1OCc1nnc(SCC(=O)Nc2ccc3c(c2)OCO3)n1C
i | x | N#Cc1ccc(CN2CCC3(CC2)CCN(C(=O)c2cccc(F)c2)CC3)cc1
i | >57 | CCc1ccc2c(COC(=O)c3n[nH]c4ccccc34)cc(=O)oc2c1
i | >57 | O=C(c1cc(-c2ccc(Cl)c(Cl)c2)on1)N1CCN(c2ccccc2)CC1
i | >57 | CCn1nnnc1-c1ccc(OC)c(S(=O)(=O)NCc2ccccc2)c1
i | >57 | CCC(CO)NC(=O)c1cccc(S(=O)(=O)N2c3ccccc3CC2C)c1 (configuration not stated)
i | x | Fc1cc(Br)ccc1Nc1nc2ccccc2n2nnnc12
i | >57 | CCOC(=O)n1c(SCC(=O)N(CC)CC)nc2ccccc21
i | x | CN(C)[C@H]1C(=O)C(C(=O)NCN2CCCC2)=C(O)[C@]2(O)C(=O)C3=C(O)c4c(O)cccc4[C@@](C)(O)[C@H]3C[C@@H]12
i | >57 | Clc1ccccc1Cn1nnc2c(NCC3CC3)ncnc21
i | >57 | O=P1(Nn2cnnc2)C=C(c2ccccc2)OC(c2ccccc2)=C1
i | x | COc1ccc(NC(=O)C2CCC(C)(C(=O)O)C2(C)C)cc1 (configuration not stated)
x | >26 | CCOC(=O)C1/C(=N\O)CC(C)(O)C(C(=O)OCC)C1c1ccc(OC)c(OC)c1 (configuration not stated)
i | >57 | COc1ccc(-c2nnc(SCC(=O)OC3CCCCC3)o2)cc1OC
i | >57 | CCOC(=O)CCCCC(=O)c1[nH]c(=O)[nH]c1CSc1nc(-c2ccccc2)c(C#N)c(=O)[nH]1
i | x | CC(C)[C@@H](CC(=O)N[C@@H]1CCCC[C@H]1C(=O)N[C@H](CC(=O)N[C@@H](CCC(=O)O)CC(=O)O)Cc1ccccc1)NC(=O)C[C@H](Cc1c[nH]c2ccccc12)NC(=O)[C@@H]1CNCC[C@H]1N
i | >57 | O=C(Cn1nnc(-c2ccccc2)n1)NCc1ccc2c(c1)OCO2
i | >57 | COC(=O)C1=C(C)NC(=O)C1(Nc1nccs1)C(F)(F)F (configuration not stated)
i | x | N#Cc1ccc(Sc2nc3ccccc3[nH]2)cc1C#N
i | x | Clc1ccc(Cc2nnc(-c3ccccc3Br)o2)cc1
i | x | CCOC(=O)N1CCC(N2Cc3cccc(C(=O)NCc4ccc(C)cc4)c3C2=O)CC1
i | >57 | CCOc1cccc(NC(=O)CC#N)c1
i | >57 | Cc1nn2c(N3CCCC3)cc(C(C)C)nc2c1-c1ccccc1
i | >57 | Cc1ccccc1-n1c(C)nnc1SCC(=O)NCC1CCCO1 (configuration not stated)
x | >11 | OCCNc1ncnc2c1c(-c1ccccc1)c(-c1ccccc1)n2Cc1ccco1
i | >57 | CN(C)c1ccc(-c2nnc(-c3ccc(S(=O)(=O)C(F)F)cc3)o2)cc1
i | >57 | CCCCNC(=O)CSc1nc2ccccc2c(=O)n1C1CCCC1
x | >26 | O=C(C(c1ccccc1)N1CCOCC1)N1CCOCC1 (configuration not stated)
i | x | COc1ccc2c(c1)-c1nc(NC(=O)c3ccco3)sc1CC2
i | >57 | CCOCCCNC(=O)c1ccccc1SCC
i | >57 | CC(=O)c1c(N2CCCCC2)nc(=O)n(-c2ccccc2)c1C
i | >57 | O=C(OCC(=O)N1CCOCC1)c1ccccc1SCC(=O)N1CCCC1
i | >57 | Cc1cc(=O)n2nc(N3CCC(C(=O)NCc4cccnc4)CC3)sc2n1
i | >57 | CCOc1ccccc1OCC(=O)Nc1nnc(COC)s1
i | >57 | Cn1c(Cc2ccccc2)nnc1SCC(=O)Nc1ccccc1N1CCOCC1
i | x | Cc1ccc2cccc(SCC(=O)N3CCOCC3)c2n1
i | >57 | CC1(c2ccccc2)NC(=O)N(CCN2C(=O)c3ccccc3C2=O)C1=O (configuration not stated)
i | >57 | COC(=O)CSc1nc2c(c(-c3ccco3)c1C#N)CCCC2
i | >57 | CCN1CCN(c2ncc(C(=O)Nc3cc(Cl)c(OC)cc3OC)c3ccccc23)CC1

Sorted by molar mass (lowest first): part of the list above
YjeE inh | Bst PK mod | mol
i | >57 | CCOC(=O)n1c(SCC(=O)N(CC)CC)nc2ccccc21
i | x | Fc1cc(Br)ccc1Nc1nc2ccccc2n2nnnc12
i | >57 | COc1ccc(-c2nnc(SCC(=O)OC3CCCCC3)o2)cc1OC
i | >57 | Cc1cc(=O)n2nc(N3CCC(C(=O)NCc4cccnc4)CC3)sc2n1

Next section
YjeE inh | Bst PK mod | mol
i | >57 | C=CCn1c(SCC(=O)Nc2ccccc2C)nnc1-c1ccncc1
i | x | COc1cccc(-c2cncnc2NCc2cnc(C)cn2)c1
i | >57 | Cn1c(=O)c2ccccc2n(Cc2ccccc2F)c1=O
i | x | CCOC(=O)N1CCC(NC(=O)CN2C(=O)CCSc3ccccc32)CC1
i | >57 | COc1cc(C2CC(=O)NC3=C2C(=O)CC(C)(C)C3)ccc1O (configuration not stated)
i | >57 | Brc1ccc(C2=Nn3c(nnc3-c3cccnc3)SC2)s1
i | i | O=P(O)(O)c1ccccc1OCCCCCOc1ccccc1P(=O)(O)O
i | >57 | CCOC(=O)C1C(C#N)=C(N)OC(C)=C1c1ccncc1 (configuration not stated)
i | >57 | O=C(Nc1ccc(Cl)cc1)Nc1ccc(N2CCOCC2)cc1
i | x | O=C(COc1ccc(Br)cc1)N1CCCCCC1
i | >57 | Cc1cc(C)c2cc(CN(CC3CCCO3)C(=O)NC3CCCCC3)c(=O)[nH]c2c1 (configuration not stated)
i | >57 | CC(=O)Nc1ccc(S(=O)(=O)N2CCN(CC(=O)NC3CCCC3)CC2)cc1
i | >57 | CS(=O)(=O)Nc1ccc2c(c1)nc1n2CCOC1
i | >57 | CC1(C)CNC(=O)C=C(c2ccccc2)C1
i | >57 | O=C(CCCn1c(=O)c2sccc2n(Cc2ccc(F)cc2)c1=O)NCc1ccco1
i | x | CCCCCC(C)n1[nH]c(=O)c2c(C)cc(C)nc21 (configuration not stated)

Structural class, the compounds so far with two or more sulfur atoms (3)
YjeE inh | Bst PK mod | mol
i | >57 | O=S(=O)(NCc1ccccc1)c1ccc(S(=O)(=O)N(Cc2ccccn2)Cc2ccco2)cc1
i | >57 | Clc1ccc(C2=Nn3c(nnc3-c3cccnc3)SC2)s1
i | >57 | Brc1ccc(C2=Nn3c(nnc3-c3cccnc3)SC2)s1

Further structures:
YjeE inh | Bst PK mod | mol
i | x | Cc1onc(-c2c(Cl)cccc2Cl)c1C(=O)Nc1ccc2c(c1)OCCO2
i | x | CCOc1ccc(Cc2nccc3cc(OCC)c(OCC)cc23)cc1OCC
i | x | COCCCn1c(=N)c(C(=O)NCC2CCCO2)cc2c(=O)n3cccc(C)c3nc21 (configuration not stated)
i | >57 | CCc1nc2ccccc2c(=O)n1NC(=O)c1c(O)c2ccccc2[nH]c1=O
i | >57 | C/C(N)=C(/C#N)C(=O)CSc1nnnn1-c1ccc(C)cc1C
i | x | COCc1nn2c(N)c(C#N)cnc2c1-c1ccccc1
i | >57 | O=C(CSc1ccc(Cl)cc1)c1ccco1
i | >57 | Cc1ccc(C(=O)O)c(C(=O)Nc2nc(C)cs2)c1
x | >26 | O=C1C=C(O)CC(c2ccco2)C1 (configuration not stated)
i | >57 | O=C(NCCc1ccccn1)c1ccc(S(=O)(=O)N2CCCCCC2)cc1
i | >57 | CCOC(=O)N1CCC(Nc2c(N3CCN(c4cccc(C(F)(F)F)c4)CC3)c(=O)c2=O)CC1
i | >57 | COCc1cc(C)nc2sc(C(=O)OC(C)C)c(N)c12
i | i | Cc1cc(NC(=O)c2oc3ccccc3c2C)ccc1-n1cnnn1
i | x | Oc1cc2c(c(Cl)c1O)CCNC[C@H]2c1ccccc1
i | >57 | CC(C)CNS(=O)(=O)c1ccc(CCC(=O)N2CCN(Cc3ccccc3)CC2)cc1
i | x | COC(=O)c1sccc1NC(=O)c1ccoc1C
i | x | NC(N)=NC(N)=Nc1cccc(Cl)c1
i | 4.2* | O=S(=O)(Nc1ccc2c(c1)OCCO2)c1cccs1
i | >57 | CCOc1ccc(-c2n[nH]c(C)c2Oc2ccccc2OC)c(O)c1
i | >57 | COc1ccc(/C(O)=C2/C(=O)C(=O)N(CCN(C)C)C2c2ccc(OC)c(OC)c2)c(C)c1 (configuration not stated)
i | >57 | CCn1c(=O)n(CC(=O)N2CCN(c3ccccc3F)CC2)c(=O)c2ccccc21
i | >57 | COc1ccc(CNC(=O)c2noc3c2CCCCC3)cc1
i | x | COc1ccc(-n2c(=O)c(C)nc3cnc(N4CCOCC4)nc32)cc1
i | >57 | COc1cc(OC)c(NC(=O)CCc2nc(-c3cccs3)no2)cc1Cl

As entered above:
`O=S(=O)(Nc1ccc2c(c1)OCCO2)c1cccs1` in Bst PK mod reads 4.2*
`CCn1c(=O)n(CC(=O)N2CCN(c3ccccc3F)CC2)c(=O)c2ccccc21` in Bst PK mod reads >57
`CCOc1ccc(-c2n[nH]c(C)c2Oc2ccccc2OC)c(O)c1` in Bst PK mod reads >57
`COc1cc(OC)c(NC(=O)CCc2nc(-c3cccs3)no2)cc1Cl` in Bst PK mod reads >57
`COc1ccc(CNC(=O)c2noc3c2CCCCC3)cc1` in Bst PK mod reads >57

Other compounds follow.
YjeE inh | Bst PK mod | mol
x | >26 | CCOc1ccc2nc(NC(NC(=O)CC)(C(=O)OC)C(F)(F)F)sc2c1 (configuration not stated)
i | x | N[C@@H](C(=O)O)c1ccc(C(=O)O)c(C(=O)O)c1
i | >57 | CCN1CCN(S(=O)(=O)c2cc(OC)ccc2OC)CC1
i | >57 | O=C(O)CCc1ccc(-c2cccs2)n1NC(=O)c1ccccc1Br
i | >57 | CC(=O)Nc1ccc(S(=O)(=O)NCC2CCC(C(=O)N3CCN(c4ccccn4)CC3)CC2)cc1 (configuration not stated)
i | >57 | CCN=C(Nc1cccc(F)c1)SC1CC(=O)N(c2ccc(OC)cc2)C1=O (configuration not stated)
i | x | O=C(CN1CCOCC1)N1CCCc2c1c(=O)oc1ccc(OCc3ccccc3)cc21
i | >57 | CCS(=O)(=O)N1CCN(Cc2nc3ccccc3c(=O)[nH]2)CC1
i | >57 | CCOC(=O)c1cnc(-n2nc(C)cc2C)nc1NCc1ccc2c(c1)OCO2
i | x | FC(F)(F)c1ccccc1-c1nc(NC2CC2)c2ccccc2n1
i | >57 | COc1cccc(OC)c1NC(=O)C1CCCN1C(=O)NCc1ccccc1 (configuration not stated)
i | >57 | CN1CCN(c2ccc(Cl)cc2NC(=O)C2COc3ccccc3O2)CC1 (configuration not stated)
i | >57 | Cc1ccc(S(=O)(=O)CC2CSc3nc(N)cc(=O)n32)cc1 (configuration not stated)
i | x | N#Cc1cccc(NC(=O)N2CC3(CCN(C(=O)c4cnccn4)CC3)C2)c1
i | >57 | COc1ccc(-c2oc3ncnc(NCCN4CCOCC4)c3c2-c2ccc(OC)cc2)cc1
i | >57 | CCCn1c(Nc2nc3ccccc3n2C)nc2ccccc21
i | >57 | Cn1nnnc1SCCNCc1ccncc1
i | >57 | O=C(O)CCCC(=O)Nc1ccccc1C(=O)N1CCCC1
i | >57 | COCCN1C(=O)c2ccccc2C(C(=O)NCCCN2CCCC2=O)C1c1c[nH]c2ccccc12 (configuration not stated)
i | i | Cc1cc(Cl)c(S(=O)(=O)N2CC(C)OC(C)C2)cc1OCC(N)=O (configuration not stated)
i | >57 | Cc1cc(C)n(C(=O)CCCC(=O)n2nc(C)cc2C)n1
i | >57 | COC(=O)c1ccc(NC(=O)CN2CCOCC2)cc1
i | u | Cc1ccc(-c2csc(N(CCCN3CCOCC3)C(=O)c3ccco3)n2)cc1
i | >57 | COC(=O)CSc1nc(NCC(C)C)nc(N2CCOCC2)n1
i | >57 | CCOC(=O)C1C(=O)NC(N2CCCCC2)=NC1c1ccccc1 (configuration not stated)
i | >57 | O=c1[nH]c2cc3c(cc2cc1CN(CC1CCCO1)S(=O)(=O)c1ccccc1)OCCO3 (configuration not stated)
i | >57 | Cc1ccc(NCc2nnc(SCC(=O)N3CCCc4ccccc43)o2)c(C)c1
i | >57 | Cc1cc(N2CCOCC2)n2nc(C)c(-c3ccccc3)c2n1
x | >26 | CC1CC(C(F)(F)F)n2ncnc2N1 (configuration not stated)
i | >57 | Cc1ccc(NC(=O)C2CCN(S(=O)(=O)c3c(C)n[nH]c3C)CC2)nc1
i | i | CCOc1ccc(NC(=O)c2ccccc2OC)cc1
i | x | O=C(COc1ccccc1)N1CCN(C(=O)Cc2ccccc2)CC1
i | x | Cc1nc2ccccc2nc1N1CCCC1
i | x | Cc1nc2ccc(-c3ccccc3)cc2o1
i | >57 | CCOc1ccccc1N(CC(=O)NC1CCCCC1)C(=O)CCCC(=O)Nc1ccccn1
i | x | O=C(Nc1cccc(-c2cn3ccccc3n2)c1)c1cnccn1
